TRPML1 ag = activates the human TRPML1 channel. Q9GZU1. 410,000 tested, 0.12% active. TRPML1-expressing cells, Ca2+ dye fluorescence, FDSS; host cell line not named in the record; reference of the full effect not given here. activation, % (no concentration beside the values); in the data active = activation above about 50%; inconclusive = about 30% to 50%; inactive = below about 30%; note: 0% is about no effect; the text of the record puts the active cut at 80%
Target sequence (Q9GZU1 whole entry, looked up): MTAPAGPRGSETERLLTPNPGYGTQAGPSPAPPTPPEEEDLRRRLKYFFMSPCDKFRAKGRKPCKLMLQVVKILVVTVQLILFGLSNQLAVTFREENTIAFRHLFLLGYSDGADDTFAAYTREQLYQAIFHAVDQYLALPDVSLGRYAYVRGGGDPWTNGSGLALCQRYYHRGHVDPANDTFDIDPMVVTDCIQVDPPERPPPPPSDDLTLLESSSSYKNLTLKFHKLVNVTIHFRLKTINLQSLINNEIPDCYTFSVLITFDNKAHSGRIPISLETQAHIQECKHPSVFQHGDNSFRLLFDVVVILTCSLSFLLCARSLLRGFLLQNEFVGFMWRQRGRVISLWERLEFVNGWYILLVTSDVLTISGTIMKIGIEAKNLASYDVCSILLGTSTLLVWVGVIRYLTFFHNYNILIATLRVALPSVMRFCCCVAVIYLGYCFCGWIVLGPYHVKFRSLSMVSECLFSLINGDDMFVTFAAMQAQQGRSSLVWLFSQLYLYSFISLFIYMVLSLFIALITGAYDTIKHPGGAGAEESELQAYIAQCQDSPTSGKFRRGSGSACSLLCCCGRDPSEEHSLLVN
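In this qHTS format, compounds were pin-transferred onto Ca8-dye-loaded TRPML1-DL cells induced with Tet overnight, and intracellular Ca2+ fluorescence was recorded kinetically for 110 s after a 10 s baseline. A subsequent 4uM final 54-4 (EC80) addition followed by a second 110 s read served as the antagonist phase.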
D2 ag = activates the human D2 dopamine receptor; DiscoveRx PathHunter D2 beta-arrestin, luminescence, 90 min; 100% = 57 uM dopamine signal; activation, % (test concentration not listed); P14416; AID 624465; 360,000 tested, 0.084% active; in the data active = activation above about 40%; inconclusive = about 15% to 40%; inactive = below about 15%; note: compound concentration not given in the record; the text of the record calls up to 30% inactive
Target sequence (P14416 whole entry, looked up): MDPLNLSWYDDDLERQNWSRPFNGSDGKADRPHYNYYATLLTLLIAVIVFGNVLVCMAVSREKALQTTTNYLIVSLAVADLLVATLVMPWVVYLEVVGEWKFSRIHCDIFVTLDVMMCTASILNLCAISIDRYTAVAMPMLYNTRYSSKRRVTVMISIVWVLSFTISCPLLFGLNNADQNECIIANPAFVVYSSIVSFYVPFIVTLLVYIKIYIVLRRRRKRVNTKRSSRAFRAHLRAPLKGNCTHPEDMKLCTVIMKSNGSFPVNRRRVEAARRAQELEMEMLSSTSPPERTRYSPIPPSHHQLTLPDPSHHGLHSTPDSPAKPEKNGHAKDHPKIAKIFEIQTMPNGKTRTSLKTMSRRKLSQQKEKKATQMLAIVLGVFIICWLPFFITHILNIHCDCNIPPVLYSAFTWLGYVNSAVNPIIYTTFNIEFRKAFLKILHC
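Agonist mode: compounds alone added to overnight-plated D2 PathHunter cells for 90 min at 37 C, with 57 uM final dopamine (EC100) defining full response. Beta-arrestin recruitment detected by chemiluminescent reagent, read after 1 h at ambient temperature.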
PINK1 modulator = changes PINK1 expression. 410,000 tested, 0.2% active. AID 624263. Potency, µM (top dose mostly 76.6 µM), for inactives: at the top dose activation (PINK1 increase), most hits filed as activators. PINK1 immunofluorescence, high-content cytometry, 24 h; active = well fitted activation curve with a large enough effect; inconclusive = small, poorly fitted or top-dose-only effect; inactive = flat fitted curve, though single readings scatter; cell line not stated here;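 note: potency is the fitted concentration of half-maximal effect; % of control where 0% means no effect; nearly all actives have a fitted effect of over 65% in size; a mitochondrial uncoupler was the plate control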
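A stable cell line was treated with compounds at 5 concentrations for 24 hours, with CCCP as control. PINK1 levels and mitochondrial localization were measured by immunofluorescence with mitochondrial, cell and nuclear markers after fixation, read by laser-scanning cytometry.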
TRPML1 blocker = blocks the human TRPML1 channel; TRPML1-inducible cells, Ca2+ dye fluorescence, FDSS; active compounds read low; inhibition of EC80 agonist-evoked calcium signal; activity change, negative = inhibition, % (test concentration not listed); 390,000 tested, 0.02% active; AID 624415; in the data active means activity change below about -50%; inconclusive means about -30% to -50%; inactive means above about -30%;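 note: stimulus is agonist 54-4 at its EC80 concentration; % is set by controls: 0 for no effect and ±100 for the full control effect; compound concentration not given in the record; the text of the record puts the active cut at -80%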
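Calcium fluorescence in TRPML1-DL cells induced overnight with Tet: a 110 s read after compound pin addition, then a 110 s antagonist read after challenge with 54-4 at 4 uM final (EC80).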
Six1-Eya2 blk = inhibitors of human Six1/Eya2 interaction. 360,000 tested, 0.56% active. Q15475+O00167. activity change, % (test concentration not listed). AlphaScreen GST-Six1/His-Eya2 binding, biochemical; active compounds read low; control for the full effect not named in the record; in the data active = activity change below about -65%; inconclusive = about -30% to -65%; inactive = above about -30%; note: % is set by controls: 0 for no effect and ±100 for the full control effect
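Homogeneous AlphaScreen proximity assay pairing GST-Six1 with His-tagged Eya2 (added as 5X mix: 250 nM and 500 nM) in 50 mM Tris pH 8.0, 300 mM NaCl, 1 mM TCEP. Glutathione donor and nickel acceptor beads; 1 h, 37 °C, dark.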
CtBP-E1A blk = blocks the CtBP interaction with E1A | AlphaScreen GST-E1A/His-CtBP binding, 1536-well; active compounds read low; control for the full effect not named in the record | activity change, % (concentration not given with the values) | 340,000 tested, 0.49% active; in the data active means activity change below about -65%; inconclusive means about -30% to -65%; inactive means above about -30%; note: % is set by controls: 0 for no effect and ±100 for the full control effect
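AlphaScreen with 125 nM GST-E1A and 125 nM His-CtBP (5X stocks) in Tris pH 8.0, 300 mM NaCl, BSA, Tween 20, TCEP. Compounds preincubated 2 h at 37 deg C, then glutathione donor/nickel acceptor beads added for 1 h at 37 deg C in dark.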
Starred values were filed as active, the others as inactive; [ ] = remark or other dose. Hits appear at their usual frequency; about 1% have a hit in one of these screens.

How did O=c1c(-c2cc(-c3ccc(F)cc3)nc3c2COc2ccc(Cl)cc2-3)coc2ccc(F)cc12 do in these assays?
TRPML1 ag: -0.7; PINK1 modulator: 2.6%; TRPML1 blocker: 8

What do the screens show for `CCn1c2ccccc2c(=O)c2ccccc21`?
TRPML1 ag: -0.2; D2 ag: -1.3; PINK1 modulator: -1.6%; TRPML1 blocker: -7; Six1-Eya2 blk: 5; CtBP-E1A blk: 5

How did COc1ccc(CN(C(=O)c2ccc(CN3CCOCC3)o2)C(C(=O)NCC2CCCO2)c2ccc(F)cc2)cc1 (centres undefined) do in these assays?
TRPML1 ag: -0.1; D2 ag: -3.6; PINK1 modulator: -2.5%; TRPML1 blocker: 29; Six1-Eya2 blk: 2; CtBP-E1A blk: -5

What do the screens show for `O=C(CSc1ncc(CO)n1Cc1ccccc1)Nc1ccc(C(F)(F)F)cc1`?
TRPML1 ag: 0.3; PINK1 modulator: -3.3%; TRPML1 blocker: 1

What do the screens show for `COc1ccc(CN2CCCCC2c2cccnc2)c(OC)c1C` (centres undefined)?
TRPML1 ag: 0.8; D2 ag: -2.4; TRPML1 blocker: -3; Six1-Eya2 blk: 8; CtBP-E1A blk: 12

How did COc1ccccc1NC(=O)c1ccc(NC(=O)CSc2nncn2C)cc1 do in these assays?
TRPML1 ag: 1.4; D2 ag: -4.4; PINK1 modulator: -1.4%; TRPML1 blocker: 6; Six1-Eya2 blk: 0; CtBP-E1A blk: -1

How did CC(C)c1ccccc1-n1c(SCc2cc(=O)oc3ccc4ccccc4c23)nnc1-c1cccnc1 do in these assays?
TRPML1 ag: 3.0; D2 ag: -0.2; PINK1 modulator: -1.5%; TRPML1 blocker: 17; Six1-Eya2 blk: -6; CtBP-E1A blk: -3

How did CCOC(=O)Cn1c(=N)n(CCOc2ccc(F)cc2)c2ccccc21 do in these assays?
TRPML1 ag: -0.7; D2 ag: -1.1; PINK1 modulator: -1.0%; TRPML1 blocker: 24; Six1-Eya2 blk: 5; CtBP-E1A blk: 9

How did Cc1ccc2nc(-c3ccncc3)cc(-c3ccccc3)c2c1 do in these assays?
TRPML1 ag: -0.2; D2 ag: -2.2; PINK1 modulator: 5.3%[38.3 µM]; TRPML1 blocker: -2; Six1-Eya2 blk: -5; CtBP-E1A blk: -10

Results for Cc1nnc2ccc(-c3cccc(NS(C)(=O)=O)c3)nn12 ?
TRPML1 ag: 0.0; D2 ag: -5.1; PINK1 modulator: 7.0%; TRPML1 blocker: 2; Six1-Eya2 blk: -1; CtBP-E1A blk: 0

What do the screens show for `CCN(CC)c1ccc(CNc2nc3ccccc3n2C)cc1`?
TRPML1 ag: 0.6; D2 ag: -1.3; PINK1 modulator: 0.5%; TRPML1 blocker: 7; Six1-Eya2 blk: -15; CtBP-E1A blk: -19

What do the screens show for `c1ccc(Cc2cc(-c3ccccc3)on2)cc1`?
TRPML1 ag: 8.9; D2 ag: -3.0; PINK1 modulator: 16%[38.3 µM]; TRPML1 blocker: -10; Six1-Eya2 blk: 109; CtBP-E1A blk: 179

Results for COc1ccc(/C=C2\SC(=NCc3ccccc3)NC2=O)cc1 ?
TRPML1 ag: -0.9; D2 ag: -6.5; PINK1 modulator: 13%; TRPML1 blocker: 37; Six1-Eya2 blk: -6; CtBP-E1A blk: 0

How did COc1cccc(C2NC(=O)c3sc(=S)n(-c4ccccc4)c3N2)c1 (centres undefined) do in these assays?
TRPML1 ag: -0.5; D2 ag: -8.7; PINK1 modulator: -0.8%; TRPML1 blocker: 0; Six1-Eya2 blk: -1; CtBP-E1A blk: -3

What do the screens show for `COc1ccc(Cn2c(SCc3ccc(C(=O)NC4CCCCC4)cc3)nc3ccncc32)cc1`?
TRPML1 ag: 1.0; PINK1 modulator: 2.3%; TRPML1 blocker: 1

How did CC(C)N(C)Cc1nnnn1CC(=O)N(C)Cc1cccc(Cl)c1 do in these assays?
TRPML1 ag: 1.1; D2 ag: -2.4; PINK1 modulator: 2.0%; TRPML1 blocker: 8; Six1-Eya2 blk: -5; CtBP-E1A blk: 12

What do the screens show for `COc1ccc(C2C(=O)N(C3CCCCCC3)CC(=O)N2Cc2ccc(C)cc2)cc1OC` (centres undefined)?
TRPML1 ag: 0.4; PINK1 modulator: 3.5%; TRPML1 blocker: 9

What do the screens show for `CCN(CC)C(=O)CN(C#N)c1nc(C)cc(C)n1`?
TRPML1 ag: 0.2; D2 ag: -0.4; PINK1 modulator: 1.5%; TRPML1 blocker: 29; Six1-Eya2 blk: 7; CtBP-E1A blk: 0

What do the screens show for `NC(=O)c1cccc(-c2cccc(OC(=O)NC3CCCCC3)c2)c1`?
TRPML1 ag: -0.1; D2 ag: -2.5; PINK1 modulator: 0.1%; TRPML1 blocker: -1; Six1-Eya2 blk: -20; CtBP-E1A blk: -1

What do the screens show for `Cc1cc(OCC(=O)NCC(O)c2ccccc2)c2c(C)cc(=O)oc2c1` (centres undefined)?
TRPML1 ag: -1.1; D2 ag: -11; PINK1 modulator: 0.8%; TRPML1 blocker: 64; Six1-Eya2 blk: -2; CtBP-E1A blk: 1

How did CC1(C(=O)Nc2ccc3nc[nH]c3c2)CCN1C(=O)Cc1ccc(-c2ccccc2)cc1 (centres undefined) do in these assays?
TRPML1 ag: -0.6; D2 ag: 9.3; PINK1 modulator: 1.0%; Six1-Eya2 blk: -10; CtBP-E1A blk: -1

How did Cc1ccccc1NC(=S)NC(=O)c1cncc(Br)c1 do in these assays?
TRPML1 ag: -0.6; D2 ag: -9.3; PINK1 modulator: 1.5%; TRPML1 blocker: 6; Six1-Eya2 blk: -1; CtBP-E1A blk: 2

What do the screens show for `Cc1ccc(C)c(S(=O)(=O)N2CCN(C(=O)c3cc(-c4cccs4)nn3-c3ccccc3)CC2)c1`?
TRPML1 ag: 0.9; D2 ag: -2.6; PINK1 modulator: 1.0%; TRPML1 blocker: 1; Six1-Eya2 blk: -1; CtBP-E1A blk: -9

What do the screens show for `O=C(CCN1C(=O)/C(=C/c2ccccc2Cl)SC1=S)NC1=NCCS1`?
TRPML1 ag: 1.0; D2 ag: 0.0; PINK1 modulator: 1.2%; TRPML1 blocker: 27; Six1-Eya2 blk: -11; CtBP-E1A blk: -3

What do the screens show for `CC1(C(=O)Nc2ccccc2)CCN1C(=O)C1(c2ccccc2)CC1` (centres undefined)?
TRPML1 ag: 0.8; D2 ag: -5.8; PINK1 modulator: 0.9%; Six1-Eya2 blk: -1; CtBP-E1A blk: 6

How did CC(=O)c1nn(-c2ccc(Cl)cc2)c(=O)[nH]c1=O do in these assays?
TRPML1 ag: 2.4; D2 ag: 2.0; PINK1 modulator: -1.9%; TRPML1 blocker: -2; Six1-Eya2 blk: 3; CtBP-E1A blk: -3

Results for Cc1onc(-c2c(F)cccc2Cl)c1C(=O)N1CCN(S(C)(=O)=O)CC1 ?
TRPML1 ag: 2.9; D2 ag: -0.6; PINK1 modulator: 4.4%[38.3 µM]; TRPML1 blocker: -10; Six1-Eya2 blk: 3; CtBP-E1A blk: 3

Results for Cc1[nH]n(-c2ccccc2)c(=O)c1C=NCCc1ccccc1 ?
TRPML1 ag: 1.6; D2 ag: -6.1; PINK1 modulator: 0.8%; TRPML1 blocker: 9; Six1-Eya2 blk: 9

Results for CCOC(=O)C(C)n1cnc2c(nnn2-c2ccc(OC)cc2)c1=O (centres undefined) ?
TRPML1 ag: 1.8; D2 ag: -0.2; PINK1 modulator: 2.8%[38.3 µM]; TRPML1 blocker: 5; Six1-Eya2 blk: 1; CtBP-E1A blk: 0

Results for Cc1oc2ccc(O)c(CN3CCOCC3)c2c1C(=O)Nc1cccc(Cl)c1C ?
TRPML1 ag: -0.8; PINK1 modulator: 0.3%; TRPML1 blocker: -16

Results for COc1ccccc1CNC(=O)c1ccc2nc(CCc3ccccc3)oc2c1 ?
TRPML1 ag: -0.6; PINK1 modulator: 1.4%; TRPML1 blocker: 4

Results for CCC(=O)OC1(C)C(=O)C2=COC(c3ccc(OC)cc3)=CC2=C(Br)C1=O (centres undefined) ?
TRPML1 ag: 1.0; D2 ag: 5.0; PINK1 modulator: 6.8%; TRPML1 blocker: 7; Six1-Eya2 blk: -18; CtBP-E1A blk: -1

What do the screens show for `CCOC(=O)c1cnc(-n2cc(C)cn2)nc1Nc1ccccc1OC`?
TRPML1 ag: -0.9; D2 ag: -1.5; PINK1 modulator: 54%[38.3 µM]; TRPML1 blocker: 0; Six1-Eya2 blk: -9; CtBP-E1A blk: -3

How did CCn1c2ccccc2c2cc(NC(=O)c3ccco3)ccc21 do in these assays?
TRPML1 ag: 0.8; D2 ag: 2.3; PINK1 modulator: -0.6%[38.3 µM]; TRPML1 blocker: 15; Six1-Eya2 blk: -8; CtBP-E1A blk: -6

Results for CCOc1ccc2[nH]c(=O)c(C(c3nnnn3Cc3ccco3)N3CCCC(C)C3)cc2c1 (centres undefined) ?
TRPML1 ag: 1.5; D2 ag: 3.5; PINK1 modulator: 0.3%; TRPML1 blocker: -12; Six1-Eya2 blk: -8; CtBP-E1A blk: -14

What do the screens show for `CCCNC(=O)C1(C)CCCN(Cc2cccs2)C1` (centres undefined)?
TRPML1 ag: -0.4; D2 ag: -1.2; PINK1 modulator: 0.2%; Six1-Eya2 blk: 4; CtBP-E1A blk: 1

How did CCOc1ccc(-c2cn3c(n2)sc2cc(C(=O)NCCCN4CCCCCC4)ccc23)cc1 do in these assays?
TRPML1 ag: -0.6; PINK1 modulator: 3.3%; TRPML1 blocker: -3

Results for CCOC(=O)c1cccc(NC(=O)c2cc3cc4ccc(C)cc4nc3s2)c1 ?
TRPML1 ag: -0.9; PINK1 modulator: 0.0%; TRPML1 blocker: 41

Not a retest: 5 of the compounds above.
What do the screens show for `CC1(C(=O)Nc2ccccc2)CCN1C(=O)C1(c2ccccc2)CC1` (centres undefined)?
TRPML1 ag: 0.8; D2 ag: -5.8; PINK1 modulator: 0.9%; Six1-Eya2 blk: -1; CtBP-E1A blk: 6

How did CC(=O)c1nn(-c2ccc(Cl)cc2)c(=O)[nH]c1=O do in these assays?
TRPML1 ag: 2.4; D2 ag: 2.0; PINK1 modulator: -1.9%; TRPML1 blocker: -2; Six1-Eya2 blk: 3; CtBP-E1A blk: -3

Results for Cc1onc(-c2c(F)cccc2Cl)c1C(=O)N1CCN(S(C)(=O)=O)CC1 ?
TRPML1 ag: 2.9; D2 ag: -0.6; PINK1 modulator: 4.4%[38.3 µM]; TRPML1 blocker: -10; Six1-Eya2 blk: 3; CtBP-E1A blk: 3

Results for Cc1[nH]n(-c2ccccc2)c(=O)c1C=NCCc1ccccc1 ?
TRPML1 ag: 1.6; D2 ag: -6.1; PINK1 modulator: 0.8%; TRPML1 blocker: 9; Six1-Eya2 blk: 9

Results for CCOC(=O)C(C)n1cnc2c(nnn2-c2ccc(OC)cc2)c1=O (centres undefined) ?
TRPML1 ag: 1.8; D2 ag: -0.2; PINK1 modulator: 2.8%[38.3 µM]; TRPML1 blocker: 5; Six1-Eya2 blk: 1; CtBP-E1A blk: 0
